# gsp antag = qHTS for Antagonists of gsp, the Etiologic Mutation Responsible for Fibrous Dysplasia/McCune-Albright Syndrome: qHTS; gsp-mutant cells, cAMP HTRF, 30 min; control for the full effect not named in the record; Potency, µM (series often up to 76.9 µM), for the others: at the top dose activity change, negative = inhibition, hits mostly inhibitors; 340,000 tested, 0.4% active; AID 624288, 2012; active = falling curve of any shape with a large fitted effect; inconclusive = falling curve, mostly with a smaller effect; inactive = flat or rising curve; cell line not stated here;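 also: intracellular cAMP measured with PDE inhibitor Ro 20-1724 present during compound exposure; potency is read from the fitted curve at half-maximal effect; % is scaled to controls: 0 for no effect and ±100 for the full control effect; nearly all actives have a fitted effect of over 65% in size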
#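 Cells in G418 medium, seeded 16-24 h, 37C; buffer exchange to DPBS + 1 mM CaCl2, 0.5 mM MgCl2, 0.05% BSA; cpds in DMSO + […] (300 uM stock), 30 min 37C; HTRF cAMP detection.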
# Six1-Eya2 inh = qHTS Assay for Inhibitors of the Six1/Eya2 Interaction; AlphaScreen GST-Six1/His-Eya2 binding, biochemical; stronger effect = lower value; control for the full effect not named in the record; activity change, % (concentration not given with the values); 360,000 tested, 0.56% active; in the data active = activity change below about -65%; inconclusive = about -30% to -65%; inactive = above about -30%; also: % is scaled to controls: 0 for no effect and ±100 for the full control effect
# Target sequence (O00167 whole entry, looked up): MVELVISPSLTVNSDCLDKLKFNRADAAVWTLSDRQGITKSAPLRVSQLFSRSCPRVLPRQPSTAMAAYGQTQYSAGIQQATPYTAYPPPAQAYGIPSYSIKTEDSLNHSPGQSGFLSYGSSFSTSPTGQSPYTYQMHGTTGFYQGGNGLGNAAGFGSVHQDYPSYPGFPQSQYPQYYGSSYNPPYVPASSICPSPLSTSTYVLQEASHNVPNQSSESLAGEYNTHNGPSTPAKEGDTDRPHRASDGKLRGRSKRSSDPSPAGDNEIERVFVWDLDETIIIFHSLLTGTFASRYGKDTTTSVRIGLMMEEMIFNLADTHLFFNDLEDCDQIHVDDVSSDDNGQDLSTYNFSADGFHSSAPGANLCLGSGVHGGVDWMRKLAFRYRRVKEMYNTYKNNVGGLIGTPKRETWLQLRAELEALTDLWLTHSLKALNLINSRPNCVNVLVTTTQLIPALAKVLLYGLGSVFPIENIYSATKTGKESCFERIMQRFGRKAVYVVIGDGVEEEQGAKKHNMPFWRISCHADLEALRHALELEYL
# Target sequence (Q15475 whole entry, looked up): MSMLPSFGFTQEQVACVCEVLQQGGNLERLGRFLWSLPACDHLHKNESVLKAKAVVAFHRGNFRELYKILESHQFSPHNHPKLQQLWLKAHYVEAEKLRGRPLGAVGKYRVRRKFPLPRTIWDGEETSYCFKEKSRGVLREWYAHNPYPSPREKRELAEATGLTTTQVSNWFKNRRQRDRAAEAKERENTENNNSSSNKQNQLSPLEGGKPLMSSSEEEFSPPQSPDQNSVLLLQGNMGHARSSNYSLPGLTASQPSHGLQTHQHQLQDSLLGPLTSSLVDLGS
#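 AlphaScreen with GST-Six1 and His-Eya2 (5X mix: 250 nM and 500 nM), glutathione donor and nickel acceptor beads; buffer 50 mM Tris pH 8.0, 300 mM NaCl, 1 mM TCEP; 1 h at 37 C in the dark.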
# gsp ag = qHTS for Agonist of gsp, the Etiologic Mutation Responsible for Fibrous Dysplasia/McCune-Albright Syndrome: qHTS; Potency, µM (series often up to 76.9 µM), without a hit: at the top dose activation (cAMP increase), most hits filed as activators; 340,000 tested, 0.13% active; gsp mutant cells, cAMP HTRF, 30 min; control for the full effect not named in the record; active = well fitted activation curve with a large enough effect; inconclusive = small, poorly fitted or top-dose-only effect, or another doubt; inactive = no such curve, though single readings can be large or run the other way; cell line not stated here;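 also: phosphodiesterase inhibitor Ro 20-1724 added with compounds to block cAMP breakdown; potency is read from the fitted curve at half-maximal effect; nearly all actives have a fitted effect of over 60% in size; about a fifth of the inactives were tested at one dose only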
#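 Cells stably selected in G418 were plated at 2000/well, grown 16-24 hr, then given compounds in DMSO with the PDE inhibitor […] (300 uM solution added) for 30 min at 37C; cAMP was read by HTRF.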
# D2 PAM = Beta-Arrestin HTS for Positive Allosteric Modulators of the Human D2 Dopamine Receptor: Potentiators | D(2) dopamine receptor (Homo sapiens), P14416 | DiscoveRx D2 beta-arrestin cells, luminescence, 90 min; 100% = 57 uM dopamine signal | potentiation, % (concentration not given with the values) | 360,000 tested, 0.23% active; active = potentiation of 50% or more; inconclusive = 30% to 50%; inactive = 30% or less;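 also: compound concentration not given in the record; tested on top of an EC20 dose of dopamine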
#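 PathHunter D2 cells, attached overnight at 37 deg C, received compound in DMSO plus dopamine at EC20 (50 nM final) for 90 min at 37 deg C. Beta-arrestin recruitment was read as luminescence after 1 h with detection reagent at ambient temperature.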
# D2 ag = Beta-Arrestin HTS for Positive Allosteric Modulators of the Human D2 Dopamine Receptor: Agonists; 360,000 tested, 0.084% active; activation, % (concentration not given with the values); DiscoveRx PathHunter D2 beta-arrestin, luminescence, 90 min; 100% = 57 uM dopamine signal; in the data active = activation above about 40%; inconclusive = about 15% to 40%; inactive = below about 15%; also: compound concentration not given in the record; the text of the record calls up to 30% inactive
#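 DiscoveRx PathHunter D2 beta-arrestin cells (2,100/well) attached overnight, then compound-stimulated 90 min at 37 C in HBSS/10 mM HEPES/0.1% Tween-20 buffer; beta-galactosidase complementation read by luminescence after 1 h at ambient temperature. Dopamine 57 uM final (EC100) as control.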
# CtBP-E1A blk = qHTS Assay for Inhibitors of the CtBP/E1A Interaction. CtBP / adenovirus E1A interaction (AlphaScreen). AlphaScreen GST-E1A/His-CtBP binding, 1536-well; stronger effect = lower value; control for the full effect not named in the record. activity change, % (no concentration beside the values). 340,000 tested, 0.49% active; in the data active means activity change below about -65%; inconclusive means about -30% to -65%; inactive means above about -30%; also: % is scaled to controls: 0 for no effect and ±100 for the full control effect; compound concentration not given in the record
#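 Steps: dispense buffer (Tris pH 8.0, NaCl 300 mM, TCEP 1 mM, BSA, Tween 20); add 5X protein mix (GST-E1A, His-CtBP, 125 nM each); pin 23 nL compound; 2 h at 37 °C, dark; add 5X beads (50 ug/mL); 1 h; read.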
# * hit, by the source's call; u = inconclusive; x = no result given; [ ] = remark or other dose.
SMILES,gsp ag,Six1-Eya2 inh,CtBP-E1A blk,gsp antag,D2 ag,D2 PAM
Cc1cccc(N(CC(=O)NC2CCCC2)C(=O)c2nsc(Cl)c2Cl)c1C,u,-3,5,-24%,3.5,-3
CCCN(CC(=O)Nc1ccccc1C)C(=O)c1cc(=O)[nH]c2ccccc12,-5%[15.4 µM],16,1,6%,-1.0,-2
O=C(NCc1ccc(OC(F)(F)F)cc1)c1cccc2c1C(=O)c1ccc(N3CCC(Cc4ccccc4)CC3)cc1S2(=O)=O,x,1,6,2%,-0.3,-7
COc1ccc(NC(=O)Nc2ccccn2)cc1OC,-10%,12,x,6%,0.2,-10
O=C(NNC(=S)Nc1ccc(Br)cc1)c1ccccc1,6%,-4,3,-3%,-12,-27
Cc1cc(C)c(C(=O)N2CCCC(CNC(=O)C3(c4ccc(Cl)cc4)CC3)C2)c(=O)[nH]1 (centres undefined),-2%,13,-4,-2%,-4.0,-7
Cc1cccc(N2CCN(C(c3cccs3)c3nnnn3C(C)(C)C)CC2)c1C (centres undefined),-12%,-2,7,1%,-1.1,-7
O=C1C(=Cc2ccncc2)CCCc2ccccc21,37%,7,-3,x,-3.8,-10
CCOC(=O)c1ccc(-c2ccc3oc(-c4ccsc4)cc(=O)c3c2)cc1F,x,8,5,7.1µM*,-1.1,-4
O=C(CNC(=O)c1ccccc1)N/N=C/c1cccs1,3%,-2,0,1%,1.6,-5
CC1C(c2ccccc2)=NNc2nc3c(c(=O)n(C)c(=O)n3C)n21 (centres undefined),13%,-1,2,2%,-1.2,-2
N#C/C(=C\c1ccc(OCC(N)=O)cc1)S(=O)(=O)c1ccccc1,-10%,-1,8,-17%,-1.1,-8
COc1ccc2nc(-c3ccc(Cl)cc3)cc(C(=O)O)c2c1,-39%[inhibitor],-3,-5,-15%,-2.2,-8
COc1ccc(Nc2nc(-c3ccccc3)c3ccccc3n2)cc1,2%,-1,-25,-3%,-2.8,-12
COC(=O)C1CCN(C(=O)c2cc(-c3ccc(Cl)s3)nc3ccccc23)CC1,u,4,3,32µM*,9.5,1
Clc1ccccc1C1=CC(c2ccco2)n2ncnc2N1 (centres undefined),-3%[15.4 µM],-4,7,-4%,2.2,-4
Cc1nc(-c2nc(-c3c(C(=O)NNC(=O)c4ccc(Cl)cc4)noc3C)cs2)cs1,-6%[15.4 µM],-6,4,-32%,2.9,9
CC(C)C(=O)Nc1ccc(NC(=O)c2ccc([N+](=O)[O-])cc2Cl)cc1,-3%,0,1,-10%,6.0,u
Cc1ccc(/C=C/C(=O)O)cc1S(=O)(=O)N1CCCc2ccccc21,2%,11,-12,-11%,-1.9,-6
C=Cc1ccc(CSc2cc(C)nc3nc(C)nn23)cc1,-36%[inhibitor],-3,0,-7%,-2.5,9
O=C(CSc1nnc(COc2ccc(Cl)cc2)o1)N1CCN(c2ccccc2)CC1,-12%,1,0,6%,-1.4,-3
COC(=O)c1cccc(NC(=S)N2CCN(c3ccccc3F)CC2)c1,10%[15.4 µM],4,7,1%,1.5,-11
CC(C)CCn1c(C(C)O)nc2ccccc21 (centres undefined),0%,-4,-3,5%,-1.6,3
Fc1ccc(-c2nnsc2Sc2ccccn2)cc1,-75%[inhibitor],6,-21,u,-0.8,-4
CCOC(=O)C1=C(C)NC2=C(C(=O)CC(C)(C)C2)C1c1coc2ccccc2c1=O (centres undefined),-20%,-2,-3,-5%,-2.4,-5

# Brought forward from above: 4 compounds, then new ones.
SMILES,gsp ag,Six1-Eya2 inh,CtBP-E1A blk,gsp antag,D2 ag,D2 PAM
COC(=O)c1cccc(NC(=S)N2CCN(c3ccccc3F)CC2)c1,10%[15.4 µM],4,7,1%,1.5,-11
CC(C)CCn1c(C(C)O)nc2ccccc21 (centres undefined),0%,-4,-3,5%,-1.6,3
Fc1ccc(-c2nnsc2Sc2ccccn2)cc1,-75%[inhibitor],6,-21,u,-0.8,-4
CCOC(=O)C1=C(C)NC2=C(C(=O)CC(C)(C)C2)C1c1coc2ccccc2c1=O (centres undefined),-20%,-2,-3,-5%,-2.4,-5
CCCCC(=O)Nc1ccc(NC(=O)CCCC)nc1,4%,0,1,0%,-2.0,-3
O=C(Nc1ncc(Cc2ccccc2)s1)c1cccs1,5%,-6,7,8%[15.4 µM],1.5,-21
CCCN(CCC)CCCNC(=O)C(NS(=O)(=O)c1ccc2c(c1)CCC(=O)N2)c1ccccc1 (centres undefined),22%,5,-11,-4%,1.4,-9
CCc1ccc(OCC(=O)NCC(c2ccc(Cl)cc2)N2CCCCC2)cc1 (centres undefined),-1%,-6,-7,3%,-4.0,-25
NC(=O)C1CCN(C(=O)c2cnn(-c3ccccc3)c2NC(=O)c2ccco2)CC1,7%,14,7,4%,-2.2,-19
COc1ccc(N=C2C=CC(=O)O2)cc1,19%,4,4,-8%,-0.9,-7
O=C1CC(N2CCCc3ccccc32)C(=O)N1c1ccccc1Cl (centres undefined),6%,-14,-11,0%,-2.1,0
CSCCNC(=O)C1(C)CCN1C(=O)CCc1ccccc1 (centres undefined),x,7,5,x,-3.9,-8
O=S(=O)(Cc1cnc(Cl)s1)c1ccccc1,10%,0,2,7%,-1.8,-4
Cn1c(N)c(C(=O)CN2CCN(S(=O)(=O)c3ccccc3C#N)CC2)c(=O)n(C)c1=O,-64%[inhibitor],13,9,x,-0.2,-6
Cc1ccc(C(=O)C2CCN(S(=O)(=O)c3ccc(C(=O)O)cc3)CC2)cc1,-22%,4,1,-1%,-9.7,-11
O=C1c2ccccc2NC(c2ccccc2)N1Cc1ccco1 (centres undefined),-83%[inhibitor],7,-4,-6%,-1.8,-16
CCOc1ccc(Nc2nc(N3CCCCC3)nc(N3CCCCC3)n2)cc1,-15%,0,17,-3%,-1.3,-6
Cc1cccc(N(Cc2cc3ccccc3[nH]c2=O)S(=O)(=O)c2ccccc2)c1,-21%,5,-5,-17%,0.9,-8
COc1ccc(CCC(=O)Nc2cnc3ccccc3c2)cc1,u,0,2,-3%,11,1
COc1ccccc1C(=O)Nc1cc(C)c(OCC(=O)N2CCOCC2)c(C)c1,-3%,-2,4,6%,-2.2,4
CCOC(=O)COc1ccc(Cl)cc1C1NC(=O)NC(C)=C1C(C)=O (centres undefined),-50%[inhibitor],6,-2,-10%[15.4 µM],-4.4,-12
COc1ccc(OC)c(S(=O)(=O)N2CCC(C(=O)NCCc3ccccc3)CC2)c1,-13%,9,8,-5%,-1.1,1
FC(F)(F)c1cccc(OCc2noc(-c3ccsc3)n2)c1,15%[15.4 µM],11,40,1%,1.2,-3
Cc1cc(C)cc(N2C(=O)CN(Cc3ccccc3)C2=S)c1,12%,1,x,-17%,-1.2,-10
O=C(CN1CCCCCC1)N/N=C/c1cccc(Cl)c1Cl,-34%[inhibitor],-7,0,12%,0.2,-15
CCOC(=O)Cn1cc(Cn2c3ccccc3c(=O)n2C(C)C)nn1,x,1,7,x,-5.3,-5
O=C1C(=O)N2C(=C1C(=O)N1CCCCCC1)c1ccccc1CC21CCCC1,3%[15.4 µM],0,4,2%,-5.3,-13
COc1ccc(N(CC(=O)N2c3ccccc3CC2C)S(=O)(=O)c2c(C)noc2C)cc1 (centres undefined),-23%,-9,-7,-8%,-1.5,-9
O=C(Nc1ccc(Cl)c(Cl)c1)N1CCOCC1,32%[15.4 µM],8,1,-1%,0.2,-7

# Structural class: the entries above with a CF3 group
SMILES,gsp ag,Six1-Eya2 inh,CtBP-E1A blk,gsp antag,D2 ag,D2 PAM
O=C(NCc1ccc(OC(F)(F)F)cc1)c1cccc2c1C(=O)c1ccc(N3CCC(Cc4ccccc4)CC3)cc1S2(=O)=O,x,1,6,2%,-0.3,-7
FC(F)(F)c1cccc(OCc2noc(-c3ccsc3)n2)c1,15%[15.4 µM],11,40,1%,1.2,-3

# (cont.)
SMILES,gsp ag,Six1-Eya2 inh,CtBP-E1A blk,gsp antag,D2 ag,D2 PAM
CC1=C/C(=N\OS(=O)(=O)c2ccccc2)C(C(C)C)=CC1=O,-12%,-12,1,17%,49*,114*
COc1ccnc(CSC(N)=Nc2ccccc2C(F)(F)F)c1,-11%[15.4 µM],-16,-1,8%,-5.9,2
O=C(Cn1c(=O)sc2ccccc21)OC(CCl)CCl,-25%,6,5,u,-4.1,-5
Cc1cc(C)c(/C=C2\C(=O)Nc3ccccc32)[nH]1,x,5,1,-10%,-7.9,-17
CC12CCC(C/C1=N\OC(=O)c1c(F)cccc1F)C2(C)C (centres undefined),-8%,1,-2,10%,-2.5,-2
CN(C)c1cccc(C(=O)NNC(=O)/C=C/c2cccs2)c1,-10%,-2,x,7%,-4.0,-6
COc1cc(Cn2c3ccc(NC(=O)CCc4ccccc4)cc3c(=O)n2C)ccc1F,x,0,-21,x,8.0,-6
Cc1c(/C=N/n2cnnc2)c2ccccc2n1C,-3%,3,-7,9%,-3.6,3
O=C(NCCN1CCCC1)C1CC(=O)N(C2CCCCC2)C1 (centres undefined),20%,-2,4,5%,-1.0,1
Cc1ccc(-c2csc3ncnc(SCC(=O)Nc4nnc(C)s4)c23)cc1,16%,0,-3,-3%,-1.8,-6
O=C(NCc1ccc2c(c1)OCO2)C1CC(=O)N(c2ccc(F)cc2)C1 (centres undefined),10%,-2,3,7%,-2.5,-6

# Whole records as entered above. Values in the order: gsp ag	Six1-Eya2 inh	CtBP-E1A blk	gsp antag	D2 ag	D2 PAM
# O=C(NCCN1CCCC1)C1CC(=O)N(C2CCCCC2)C1 (centres undefined) is listed with 20%	-2	4	5%	-1.0	1
# O=C(Cn1c(=O)sc2ccccc21)OC(CCl)CCl is listed with -25%	6	5	u	-4.1	-5
# CC12CCC(C/C1=N\OC(=O)c1c(F)cccc1F)C2(C)C (centres undefined) is listed with -8%	1	-2	10%	-2.5	-2

# High-throughput results (PubChem)

# Rows are unselected. About 1.4% of those tested had a hit in this group.
